High-throughput results from PubChem.
Mtb H37Rv: Mycobacterium tuberculosis H37Rv growth inhibition, cell based, confirmatory dose response (AID 1949); most inactive calls were filed without a number and no value below 0 was filed; inhibition, % at 10 µg/mL, or IC50 in µg/mL where a hit was titrated; hit rate 1.6% among 100,000;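 active means confirmed in a dose series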;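 further: bacteria grown 7 days with compound before Alamar blue readout; 0% = untreated bacteria and 100% = reference antibiotic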
* hit, by the source's call; i = inactive. Some of the compounds tested. The share of hits here may be higher or lower than overall.

SMILES	Mtb H37Rv
CCOc1ccc(NC(=O)Cn2cc(C(=O)c3cccs3)c3ccccc32)cc1	i
O=C(Nc1ccc(C(=O)O)c(O)c1)c1ccccc1	44.3%
